Assay outcomes from PubChem BioAssay.
Choline anaer gr: inhibitors of anaerobic choline-dependent gram-negative bacterial growth | Gram-negative bacterium anaerobic choline minimal medium, absorbance growth; hits give low values; many inactives read as strong as hits in the columns shown | calls only | 55,000 tested, 0.2% active;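 active = growth z-score on choline under -2 at 7 or 20 h with little or no fall on glycerol, limits in tiers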;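 note: stock transfer was 300 nL into about 50 µL; the organism is E. coli; final concentration not given here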
Choline anaer gr early: second read-out of Choline anaer gr, no call of its own (marks repeat the call); z-score; measured here: choline growth z-score, timepoint 1;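 score of optical density at 7 h as mean of two plates; lower means less growth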
* = called active by the depositor; i = inactive; & = joins results of further samples. Some of the compounds tested; count on the stated rates, not on these rows.

mol,Choline anaer gr early,Choline anaer gr
CCc1nn2c(c1-c1ccc(OC)c(S(=O)(=O)NC3CC3)c1)NC(=O)CCC2=O,0.18,i
Cc1cc(C)nc(NC(=O)Nc2ccc(Cl)cc2)n1,-0.35,i
CCOc1cc(-c2ccc(C)cc2)nc2ccc(C(=O)N3CCN(c4ccccn4)CC3)cc12,-2.8,i
CC(C)c1ccc2nc(-c3cccc(NC(=O)C4CC4)c3)ccc2c1,-0.85,i
CC1CCN(S(=O)(=O)c2ccc3c(c2)CCC(=O)N3CC(=O)Nc2ccc3c(c2)OCCO3)CC1,-1.1,i
COc1ccc(CNc2c(C(=O)Nc3cc(C)ccc3C)cnc3c2c(C)nn3-c2ccccc2)cc1,0.84,i
COc1cccc(-c2nc3n(c2C(N)=O)CCS3(=O)=O)c1,0.13,i
Cc1sc(-c2nc(-c3ccc(F)cc3)no2)cc1S(=O)(=O)NCCN1CCCC1,-1.3,i
Cc1c(C(=O)N2CCCC2)c(S(=O)(=O)Nc2ccc(S(N)(=O)=O)cc2)c(C)n1C,0.33,i
Cn1c(SCC(=O)OC(C)(C)C)nc2cc(-c3ccccc3)sc2c1=O,-0.26,i
CC1CCC(NC(=O)CN2C(=O)CCc3cc(S(=O)(=O)N4CCCCC4)ccc32)CC1 (stereo not given),-0.06,i
CC1(C(=O)NCc2ccc(F)cc2)CCCN(S(=O)(=O)c2ccc(Br)cc2)C1 (stereo not given),-0.07,i
CC(C)(C)c1csc(-c2csc(S(=O)(=O)NCc3cccs3)c2)n1,-1.7,i
COc1cc(NC(=O)N2CCCCCC2c2cccs2)cc(OC)c1OC (stereo not given),-0.15,i
Cc1ccc(-c2cc3nc(C)cc(N4CCC(C(=O)Nc5ccc(Cl)cc5)CC4)n3n2)cc1,-0.06,i
Cc1ccccc1C(=O)Nc1ccc2[nH]c(=O)oc2c1,-0.03,i
COc1ccc(NC(=O)N2CCN(c3ccc(=O)n(-c4ccccc4)n3)CC2)cc1,0.01,i
Cc1ccc(C2C3=C(CC(C)(C)CC3=O)Nc3ccccc3N2C(=O)CCC(=O)O)cc1 (stereo not given),-2.4,i
Cc1[nH]c(C)c(S(=O)(=O)N2CCC(C(=O)NC3CCCCC3)CC2)c1C(=O)N1CCCC1,-2,i
COc1ccc(CCNC(=O)Cn2nc(-c3ccccc3)c3cc(Cl)ccc32)cc1OC,-0.1,i
Cc1nn(C(C)C(=O)N2CCC(C)CC2)c(=O)c2cc3sccc3n12 (stereo not given),-0.42,i
Cc1ccc(-c2nc3c4c(C)c(C)n(Cc5ccncc5)c4ncn3n2)cc1,0.27,i
Cn1c(C2=C(O)CN(c3ccccc3Cl)C2=N)nc2ccccc21,0.35,i
Clc1cc(N2CCSCC2)ncn1,-1.9,i
CN1C[C@H](C(=O)N[C@]2(C)O[C@@]3(O)[C@@H]4CCCN4C(=O)[C@H](Cc4ccccc4)N3C2=O)CC2c3cccc4[nH]cc(c34)C[C@H]21 (stereo not given in full),0.63,i
Cc1ccccc1NC(=O)NCCCn1c(-c2ccncc2)nc2cccnc21,-0.23,i
COc1ccc(-c2noc(C(C)NC(C)=O)n2)cc1 (stereo not given),0.39,i
COc1ccc(-c2cc(C)no2)cc1S(=O)(=O)Nc1cccnc1,-1,i
CCN1C(=O)c2ccccc2Sc2cc(-c3noc(-c4ccnn4C)n3)ccc21,1.8,i
Cc1ccc(S(=O)(=O)Nc2cc3c(cc2N2CCCCC2)n(C)c(=O)c(=O)n3C)cc1,-0.21,i

Copied from above for reference:
mol,Choline anaer gr early,Choline anaer gr
Cc1ccc(C2C3=C(CC(C)(C)CC3=O)Nc3ccccc3N2C(=O)CCC(=O)O)cc1 (stereo not given),-2.4,i
Cc1[nH]c(C)c(S(=O)(=O)N2CCC(C(=O)NC3CCCCC3)CC2)c1C(=O)N1CCCC1,-2,i
COc1ccc(CCNC(=O)Cn2nc(-c3ccccc3)c3cc(Cl)ccc32)cc1OC,-0.1,i
Cc1nn(C(C)C(=O)N2CCC(C)CC2)c(=O)c2cc3sccc3n12 (stereo not given),-0.42,i
Cc1ccc(-c2nc3c4c(C)c(C)n(Cc5ccncc5)c4ncn3n2)cc1,0.27,i
Cn1c(C2=C(O)CN(c3ccccc3Cl)C2=N)nc2ccccc21,0.35,i
Clc1cc(N2CCSCC2)ncn1,-1.9,i
CN1C[C@H](C(=O)N[C@]2(C)O[C@@]3(O)[C@@H]4CCCN4C(=O)[C@H](Cc4ccccc4)N3C2=O)CC2c3cccc4[nH]cc(c34)C[C@H]21 (stereo not given in full),0.63,i
Cc1ccccc1NC(=O)NCCCn1c(-c2ccncc2)nc2cccnc21,-0.23,i
COc1ccc(-c2noc(C(C)NC(C)=O)n2)cc1 (stereo not given),0.39,i
COc1ccc(-c2cc(C)no2)cc1S(=O)(=O)Nc1cccnc1,-1,i
CCN1C(=O)c2ccccc2Sc2cc(-c3noc(-c4ccnn4C)n3)ccc21,1.8,i
Cc1ccc(S(=O)(=O)Nc2cc3c(cc2N2CCCCC2)n(C)c(=O)c(=O)n3C)cc1,-0.21,i

Continuation:
mol,Choline anaer gr early,Choline anaer gr
Cc1ccc(O)c(NC(=O)c2cc(C)no2)c1,-0.71,i
CCC(=O)N1CCc2cc(N3CC(C(=O)N4CCN(C)CC4)CC3=O)ccc21 (stereo not given),-0.26,i
COc1cn(CC(=O)Nc2cc(C)on2)c(CN2CCOCC2)cc1=O,0.58,i
CCCCNC(=O)C1CCN(c2nc(NC(C)=O)c(C(=O)N3CCCC3)s2)CC1,-0.68,i
Cc1ccccc1C1Nc2ccccc2NC2=C1C(=O)CC(c1ccccc1)C2 (stereo not given),0.26,i
Cc1ccc(Cl)cc1N1CCN(C(=O)c2[nH]c(C)c(S(=O)(=O)N3CCC(C)CC3)c2C)CC1,0.85,i
CS(=O)(=O)Nc1ccc(C2(C(=O)NCc3ccc4c(c3)OCO4)CCCCC2)cc1,0.51,i
COc1cccc(-n2c3c(c(SCc4ccc(F)cc4)nc2=O)CCC3)c1,0.75,i
O=C(CCCc1nc(-c2cccnc2)no1)Nc1nc(-c2ccccc2)cs1,0.76,i
CCN(CC)c1ccc(NC(=O)CN2C(=O)CC(c3ccc(C)cc3)=Nc3cccnc32)c(C)c1,-0.07,i
O=S(=O)(c1ccc2c(c1)OCCO2)N1CCN(c2ncnc3c2nnn3Cc2ccccc2)CC1,-0.58,i
Nc1nc2c(c(=O)[nH]1)C(c1ccc(O)cc1)CC(=O)N2 (stereo not given),-1.3,i
COc1ccccc1NC(=O)NCC(c1cccnc1)c1c[nH]c2ccccc12 (stereo not given),0.99,i
CCOC(=O)C1CCN(C(=O)C2CCCN2S(=O)(=O)c2cc3c(cc2Cl)NC(=O)CO3)CC1 (stereo not given),-0.29,i
CCc1c(C)nc(-n2nc(C)cc2NC(=O)c2ccc(Br)cc2)[nH]c1=O,-0.28,i
CC1CCCCN1C(=O)C1CC(c2ccc(F)cc2)=NO1 (stereo not given),-1.9,i
CC(C)N[C@H]1CS(=O)(=O)C[C@@H]1S(=O)(=O)c1ccc(F)cc1,-1.1,i
CCN(CC)S(=O)(=O)c1c(C)nn(S(=O)(=O)c2ccccc2)c1C,-0.11,i
COc1ccc(-c2nn3c(NCCC(C)C)cc(C)nc3c2C)cc1OC,0.67,i
Cc1nc(CCNC(=O)c2ccc(Br)o2)cs1,0.08,i
O=C(Oc1cccc(-n2cnnn2)c1)C(c1ccccc1)c1ccccc1,2.3,i
CN1C(=O)C2CCCCN2c2ccc(C(=O)NCCN3CCOCC3)cc21 (stereo not given),1,i
Nc1cc(N2CCCCC2)nc(N)[n+]1OS(=O)(=O)[O-],0.16,i
O=C(Nc1ccc(F)c(Cl)c1)Nc1cc(NC(=O)c2ccccc2Cl)ccc1N1CCCCC1,0.48,i
O=S(=O)(c1ccc2nc(NC3CCCCC3)ccc2c1)N1CCCCC1,0.44,i
O=C(c1ccccc1)N1CCN(c2ncnc3c2c(-c2ccccc2)cn3-c2ccccc2)CC1,-0.52,i
Cc1nnc2ccc(N3CCCC3)nn12,-0.77,i
CC(C)Cn1c(=O)c2ccccc2n2c(=O)n(CC(=O)Nc3ccc4c(c3)OCO4)nc12,-0.33,i
Cc1cc2c(cc1CNC(=O)Cn1cc(C(=O)C(C)(C)C)c3ccccc31)OCCCO2,1.4,i
CN(Cc1ccccc1)C(=O)C1CCCN(S(=O)(=O)c2ccc3c(c2)NC(=O)CO3)C1 (stereo not given),-0.48,i

Next section; it opens with the 2 that closed the last part.
mol,Choline anaer gr early,Choline anaer gr
Cc1cc2c(cc1CNC(=O)Cn1cc(C(=O)C(C)(C)C)c3ccccc31)OCCCO2,1.4,i
CN(Cc1ccccc1)C(=O)C1CCCN(S(=O)(=O)c2ccc3c(c2)NC(=O)CO3)C1 (stereo not given),-0.48,i
Cn1cnc2cc(-c3noc(-c4ccc(Br)cc4)n3)ccc21,-0.52,i
O=C(Cn1c(CO)cnc1SCC(=O)N1CCc2ccccc21)NC1CCCC1,-0.4,i
COc1ccc(C2=Nc3ccccc3N(Cc3cccc(OC)c3)C(=O)C2)cc1,0.13,i
CCCNC(=O)c1ccc(NC(=O)CN2CC(=O)N3CCCCC3C2=O)cc1 (stereo not given),0.23,i
O=C(Nc1ccc(N2CCC(c3ccccc3)C2)c(C(=O)O)c1)c1ccc(Br)cc1 (stereo not given),1.1,i
O=C1CC(NCCc2c[nH]c3ccc(Cl)cc23)C(=O)N1c1cccc(Cl)c1 (stereo not given),1.3,i
Cc1ccc2[nH]cc(CCNC(=O)c3ccccc3)c2c1,-0.3,i
CC1CCN(C(=O)Cn2nc3n(Cc4cccs4)c(=O)c4sccc4n3c2=O)CC1,0.24,i
Cc1ccc(N2CC(C(=O)N3CCN(S(=O)(=O)c4ccc5c(c4)NC(=O)CO5)CC3)CC2=O)cc1 (stereo not given),-0.73,i
Cc1nc(CCNC(=O)[C@H]2CCCN2S(=O)(=O)c2ccc(C(C)(C)C)cc2)cs1,1.1,i
CCn1c(=O)c2c(C(=O)N3CCN(C4CCCCC4)CC3)cc(=O)n(CC)c2n(C)c1=O,0.11,i
CC1CN2C(=O)Cc3c(S(=O)(=O)N4CCc5ccccc54)ccc(c32)S1 (stereo not given),0.31,i
O=C(Nc1ccc(-c2noc(C3CCC3)n2)cc1)NC1CC1,-0.23,i
O=S(=O)(c1cccc(Cl)c1)N1CCn2cccc2C1c1ccccc1 (stereo not given),1.3,i
CN1CCN(C(=O)c2cc(C3CC3)on2)CC1,-0.62,i
COc1cccc(C2Nc3ccc(F)cc3[C@H]3OCCC[C@@H]23)c1OC (stereo not given in full),-0.15,i
C=CCn1c(SCC(=O)Nc2ncc3c(n2)CC(c2ccccc2)CC3=O)nnc1-c1ccccc1 (stereo not given),0.77,i
Cc1nc2cccnc2n1-c1cc(C(=O)N2CCC(N3CCCCC3)CC2)ccc1Cl,0.66,i
COc1ccc(-c2nc3ccccc3s2)cc1NC(=O)c1ccc2c(c1)OCCO2,0.81,i
O=C(Nc1ccccc1C(=O)NCC1CCCO1)C1=CSCCO1 (stereo not given),0.19,i
CCC(=O)Nc1noc2ccccc12,-1.4,i
CCN(CCN(C)C)c1ccc(C(=O)O)cc1NS(C)(=O)=O,0.22,i
Fc1ccccc1-c1ccc(CNCc2ccco2)o1,-3.8,i
Cc1ccc(-c2nc3sc(CCNS(=O)(=O)c4cc(F)ccc4F)c(C)n3n2)cc1,-1.7,i
CC(C(=O)N1CCc2ccccc21)n1nc(-c2ccccc2)ccc1=O (stereo not given),-0.21,i
CCOC(=O)CC1(NC(=O)N2CCCC2c2cc(C(C)C)on2)CCCCC1 (stereo not given),-0.58,i
CN(C)c1cc(N2CCCC(NS(C)(=O)=O)C2)ncn1 (stereo not given),-0.18,i
O=C(c1ccsc1)N1CCN(c2ncnc3c2CCC3)CC1,0.08,i
Cc1nn(-c2nc3ccccc3[nH]2)c2c1C(c1ccc(C(=O)O)cc1)CC(=O)N2 (stereo not given),0.33,i
Cc1ccc(S(=O)(=O)N2CCC(c3noc(-c4cccc(F)c4)n3)CC2)cc1F,0.47,i

The list continues.
mol,Choline anaer gr early,Choline anaer gr
CCc1nc(-c2csc(S(=O)(=O)NCc3ccc4c(c3)OCO4)c2)no1,0.93,i
Nc1ncnc2c1nc(Br)n2C1OC2COP(=O)(O)O[C@@H]2C1O (stereo not given in full),0.9,i
O=C(Nc1cccc(Cl)c1)c1ccc(CN2C(=O)CCn3nccc32)cc1,0.56,i
CCOC(=O)c1[nH]c(C)c(CN(Cc2ccc(OC)cc2)C(=O)Nc2ccc(OCC)cc2)c1C,0.01,i
O=C(NCc1csc(-c2ccccc2)n1)[C@H]1CSCN1S(=O)(=O)c1ccccc1,-0.17,i
O=C(CCn1c(N2CCCC2)nc2ccsc2c1=O)NC1CCCC1,-1.5,i
COC(=O)c1ccccc1NC(=O)CSc1ncc(S(=O)(=O)c2ccc(C(C)(C)C)cc2)c(=O)[nH]1,-0.33,i
CN(C)c1oc(-c2ccc(S(=O)(=O)N(C)Cc3ccccc3)cc2)nc1C#N,0.8,i
O=C(CN(Cc1ccccc1Cl)C(=O)c1cccc(F)c1)N1CCNCC1,-0.03,i
Cc1cc(C)n2nc(CN(C(=O)CC(C)C)c3ccccc3Cl)nc2n1,0.69,i
CC(C)C1CCC(C(=O)N[C@H](Cc2ccccc2)C(=O)O)CC1 (stereo not given in full),-1.1&0.56,i
COc1ccc(C2C3=C(CC(c4ccccc4O)CC3=O)Nc3onc(C)c32)cc1O (stereo not given),-1.1,i
C=CCNC(=O)NC1CCN(C2=NS(=O)(=O)C(c3ccc(F)cc3)=C2C)CC1,-1.3,i
Cc1noc(C)c1C1CCCN1Cc1cccc(Br)c1 (stereo not given),0.17,i
COc1nc2c(c(C)nn2-c2ccc(C)cc2)c(C)c1CCC(=O)NCC1CCCO1 (stereo not given),1.1,i
